Compound activity as filed in PubChem BioAssay.
Rce1 inh: inhibitors of yeast Ras-converting enzyme; 290,000 compounds, 0.27% hits; yeast membranes, quenched prenylated peptide cleavage fluorescence; AID 2563; calls only;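 active = fall in fluorescence gain of 50% or more versus controls, with final raw signal at or below 3038400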;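 note: plate controls were neutral control wells for no effect and wells lacking membranes for full effect; tested at 10 µM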
Target sequence (Q03530 whole entry, looked up): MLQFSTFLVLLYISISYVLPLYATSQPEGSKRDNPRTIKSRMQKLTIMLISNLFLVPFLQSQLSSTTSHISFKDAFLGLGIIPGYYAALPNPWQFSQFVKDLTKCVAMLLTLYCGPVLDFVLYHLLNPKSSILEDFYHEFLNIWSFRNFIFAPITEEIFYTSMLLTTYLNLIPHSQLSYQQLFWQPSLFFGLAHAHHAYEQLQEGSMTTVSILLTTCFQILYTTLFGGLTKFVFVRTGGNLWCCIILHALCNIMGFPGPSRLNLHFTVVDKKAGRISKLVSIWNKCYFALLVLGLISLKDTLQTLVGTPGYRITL
eIF4H FP inh: inhibitors of RNA binding by human eIF4H; Q15056; eIF4H fluorescence polarization binding assay; inhibition, % at 35 µM; 290,000 compounds, 0.94% hits; AID 2012;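 active = 50% or more with normal probe brightness, or confirmed in later tests; about a fifth of its hits are not listed in these tables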;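 note: calls also rest on retests at 20 µM and on dose response follow-up; 0% = protein and probe with vehicle and 100% = probe without protein; strong numbers were not always called active; many hits fall short of the cut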
MT1-MMP act inh: MT1-MMP (human) activation inhibition; HT1080 RFP-PRO-GFP cells, GFP/RFP ratio fluorescence, overnight; percent of plate control window, DMSO zero; GFP/RFP ratio change, % at 20 µM; 360,000 compounds, 0.061% hits; AID 651647;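 active = GFP/RFP ratio change of at least 30% with cell ATP level not reduced by more than half and red fluorescence within 50% of control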; note: strong numbers were not always called active
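system = RFP-PRO-GFP reporter HT1080 cells | dosing = 20 µM single dose, 1% DMSO | timing = overnight cell settling, then overnight compound exposure, 37 °C, 5% CO2 | read-out basis = GFP/RFP fluorescence ratio | controls = DMSO and RFP-L50D-GFP cell wells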
CSC inhib: cancer stem cell inhibition; AID 2717; 300,000 compounds, 1.1% hits; cancer stem cell-like cells viability, luminescence; inhibition, % at 7.5 µM;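 active = mean at 75% or more and at least half the replicates too; tested in HMLE shEcad cells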;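 note: 0% = median of negative and 100% = median of positive control wells; the first replicate is given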
Env fusion inh: HIV envelope-mediated fusion inhibition; HeLa-JRFL Env/CEM21 cell fusion, luciferase; inhibition, % at 12.3 µM; 360,000 compounds, 1.1% hits;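 active = mean replicate inhibition score of at least 50 and every replicate individually at or above 50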;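 note: 0% = plate neutral controls and 100% = maraviroc near 300 nM; one replicate is shown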
Yeast UUG start: alters start codon recognition fidelity in yeast; S. cerevisiae UUG-firefly luciferase reporter, luminescence/redox ratio; activity score, % at 18.7 µM; 350,000 compounds, 0.13% hits; AID 602363;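 active = replicate mean at a twofold rise or more, about +100% in these data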;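 note: firefly luciferase made from a UUG start codon reports start codon fidelity; reporter light over untreated wells divided by growth signal over untreated wells; some hits fall short of that in this replicate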
PABP polyA inh: blocks human PABP binding to poly(A) RNA | P11940 | fluorescence polarization | inhibition, % at 35 µM | 290,000 compounds, 1% hits | AID 2014;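 active = 50% or more with normal probe brightness, or confirmed in later tests; about a fifth of its hits are not listed in these tables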;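 note: calls also rest on retests at 20 µM and on dose response follow-up; controls were probe without protein and protein plus probe with vehicle; some compounds called inactive have numbers as strong as hits; many hits fall short of the cut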
MT1-MMP act inh RFP: further read-out of MT1-MMP act inh, marked with its call; RFP signal change, %; measured here: RFP expression control read;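 0 = vehicle wells; hits needed this value within 50% of zero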
Numbers without * were called inactive; i = inactive; . = not tested or not shown; & = joins results of further samples.

SMILES	Rce1 inh	eIF4H FP inh	MT1-MMP act inh	MT1-MMP act inh RFP	CSC inhib	Env fusion inh	Yeast UUG start	PABP polyA inh
Cc1cc(C)cc(NC(=O)C2COc3ccccc3O2)c1 (stereo not given)	.	.	4	2	.	-23	-14	.
Cc1ccc(-n2nc3c(N4CCC(C(=O)NCc5ccccc5C)CC4)nnc(C)c3c2C)cc1	i	.	1	0	46	.	-11	.
COc1ccc(-c2nnc(N(C)C(=O)C3CCOC3)s2)cc1 (stereo not given)	i	.	4	0	-4	.	-9	.
CCCC(C)NC(=O)C1c2ccccc2Oc2ccccc21 (stereo not given)	i	6	10	1	-7	14	-1	4
COc1ccc(-c2nnn(CC(=O)c3ccc4c(c3)OCCO4)n2)cc1OC	i	-8	5	2	-4	21	-21	0
COc1ccc(-c2cc(=O)oc3cc(OCC(=O)c4cccc([N+](=O)[O-])c4)ccc23)cc1	i	6	.	.	.	-3	.	-3
O=C(N/N=C/c1cn(-c2ccccc2)nc1-c1cc2ccccc2o1)c1ccccc1Br	i	-5	0	-2	20	.	-9	-2
Cc1ccc(-c2nnc(SCc3nc4ccccc4[nH]3)n2Cc2ccco2)cc1	i	2	1	-2	.	-17	-20	5
O=C(NCCSCc1ccco1)c1ccc(CN2CCOCC2)cc1	i	4	0	2	-14	.	-19	-9
[O-][n+]1c2ccccc2[n+]([O-])c2cc(O)ccc21	i	106*	27	36	5	21	5	78*
COc1cc(S(=O)(=O)NCC(c2ccco2)N2CCCCC2)ccc1NC(C)=O (stereo not given)	.	.	0	3	-21	26	-14	.
Cc1cc(C2C(C#N)=C(N)OC3=C2C(=O)CCC3)c(C)s1 (stereo not given)	i	3	-2	0	13	22	-27	3
O=C(NC(Cc1ccccc1)C(=O)OCC(=O)N1CCc2ccccc21)c1ccco1 (stereo not given)	i	-5	1	6	-3	.	17	1
O=C(NCc1ccc(F)cc1)c1ccc(CS(=O)(=O)Cc2ccccc2F)o1	i	4	2	-2	-7	.	0	-1
NS(=O)(=O)c1ccc(CCNCc2ccccc2OCc2ccc(F)cc2)cc1	i	-5	-3	-4	.	37	-13	-6
O=C(CSc1n[nH]c(=O)[nH]c1=O)N/N=C/c1ccccc1O	i	7	4	7	1	.	.	7
CC(=NC1CC1)c1c(-c2ccccc2)[nH]n(-c2nc3ccccc3s2)c1=O	i	-11	-16	-5	-3	-89	-1	-6
CCOc1ccc(CN2CCN(c3ncnc4scc(-c5ccccc5)c34)CC2)cc1	i	3	1	-2	16	5	-2	0
Cn1c(Cc2ccc3c(c2)OCO3)nnc1SCC(=O)N1CCc2ccccc2C1	i	-9	2	1	5	7	-16	-6
N#Cc1c(NC(=O)Cn2c(=O)oc3ccccc32)oc(-c2ccccc2)c1-c1ccccc1	i	-1	6	-24	86*	.	-1	8

3 entries from above, sorted by their value in MT1-MMP act inh RFP, highest first:
| mol | Rce1 inh | MT1-MMP act inh | MT1-MMP act inh RFP | Env fusion inh | Yeast UUG start |
| --- | --- | --- | --- | --- | --- |
| Cc1ccc(-n2nc3c(N4CCC(C(=O)NCc5ccccc5C)CC4)nnc(C)c3c2C)cc1 | i | 1 | 0 | . | -11 |
| Cc1ccc(-c2nnc(SCc3nc4ccccc4[nH]3)n2Cc2ccco2)cc1 | i | 1 | -2 | -17 | -20 |
| NS(=O)(=O)c1ccc(CCNCc2ccccc2OCc2ccc(F)cc2)cc1 | i | -3 | -4 | 37 | -13 |

The results go on.
SMILES	Rce1 inh	eIF4H FP inh	MT1-MMP act inh	MT1-MMP act inh RFP	CSC inhib	Env fusion inh	Yeast UUG start	PABP polyA inh
O=C(O)CCNc1ccc(Cl)cc1	.	20	0	-4	-13	-18	.	13
CCCn1c(SCC(=O)c2cc(OC)ccc2OC)nc2c1c(=O)n(C)c(=O)n2C	.	-5	-1	-5	.	7	-5	1
CCO/N=C(/c1nonc1N)N1CCN(c2ccc([N+](=O)[O-])cc2)CC1	i	-12	2	-7	-12	-68	-6	-2
Clc1ccc(CO/N=C/c2c(-c3ccccc3)nc3n2CCS3)c(Cl)c1	i	-9	-2	-6	78*	36	-14	2
COC(=O)Cc1ccc(NC(=S)NCc2ccccc2Cl)cc1	i	-6	3	12	-3	-16	-24	3
Cc1cccc(NC(=O)CCC2CCN(Cc3nccs3)CC2)c1	i	-4	1	4	6	-5	-16	18
Cn1c(=O)c2c(ncn2Cc2ccc(Cl)c(Cl)c2)n(C)c1=O	i	-6	-2	-17	54	66*	2	-15
CCc1ccc(OCC(=O)NNC(=O)Cc2cccs2)cc1	i	13	-3	1	.	-33	.	-4
OCC[C@@H]1C[C@H](O)[C@@H](O)[C@@]2(OCc3ccccc32)O1	i	-2	-2	0	-2	-15	-22	-15
CCN(CC(=O)Nc1c(F)cccc1F)C(=O)c1ccc(COc2ccccc2)cc1	i	.	3	-5	-5	-2	2	.
NC(=O)c1cnc(Cc2c[nH]c3ccccc23)c(I)c1	.	.	3	-5	.	-9	-5	.
O=C(O)c1cccc(NC(=O)c2cn(-c3ccccc3)nc2-c2cc3ccccc3o2)c1	i	23	4	1	30	.	-15	-13
CC(=O)c1c(C)[nH]c(C(=O)OCc2csc(CC(=O)Nc3ccccc3C)n2)c1C	.	.	-2	-17	5	-13	-5	.
CCC(=O)c1ccc(OCC(=O)N(C)CC(=O)Nc2cccc(F)c2)cc1	i	2	1	-10	3	18	-11	-2
CCN1CCN(C(=O)CN(c2cc(OC)ccc2OC)S(C)(=O)=O)CC1	i	-6	3	2	-6	-52	2	-3
COc1ccc(/C=N/n2c(C)nnc2C)c(OC)c1OC	i	8	-1	5	-3	.	-17	0
C[C@H](CO)N1C[C@H](C)[C@@H](CN(C)S(=O)(=O)c2cccs2)Oc2ccc(NC(=O)Cc3ccccc3)cc2C1=O	.	.	0	-2	-11	8	28&7	.
O=C(CN1C(=O)C2C3C=CC(C4CC34)C2C1=O)Nc1cccc2ncccc12 (stereo not given)	i	8	1	3	9	-3	.	-1
CCOc1ccc2ccccc2c1C1NC(=O)N(C)C(C)=C1C(=O)OCCOC (stereo not given)	i	-1	-3	-2	-4	-2	-13	-5
COc1ccc(C2CC(c3ccc(OC)cc3)n3nc(NS(C)(=O)=O)nc3N2)cc1 (stereo not given)	i	-3	1	2	-16	-4	-10	-8

16 entries from above, reformatted:
| Structure | Rce1 inh | eIF4H FP inh | MT1-MMP act inh | MT1-MMP act inh RFP | CSC inhib | Env fusion inh | Yeast UUG start | PABP polyA inh |
| --- | --- | --- | --- | --- | --- | --- | --- | --- |
| Cc1cc(C)cc(NC(=O)C2COc3ccccc3O2)c1 (stereo not given) | . | . | 4 | 2 | . | -23 | -14 | . |
| Cc1ccc(-n2nc3c(N4CCC(C(=O)NCc5ccccc5C)CC4)nnc(C)c3c2C)cc1 | i | . | 1 | 0 | 46 | . | -11 | . |
| COc1ccc(-c2nnc(N(C)C(=O)C3CCOC3)s2)cc1 (stereo not given) | i | . | 4 | 0 | -4 | . | -9 | . |
| CCCC(C)NC(=O)C1c2ccccc2Oc2ccccc21 (stereo not given) | i | 6 | 10 | 1 | -7 | 14 | -1 | 4 |
| COc1ccc(-c2nnn(CC(=O)c3ccc4c(c3)OCCO4)n2)cc1OC | i | -8 | 5 | 2 | -4 | 21 | -21 | 0 |
| COc1ccc(-c2cc(=O)oc3cc(OCC(=O)c4cccc([N+](=O)[O-])c4)ccc23)cc1 | i | 6 | . | . | . | -3 | . | -3 |
| O=C(N/N=C/c1cn(-c2ccccc2)nc1-c1cc2ccccc2o1)c1ccccc1Br | i | -5 | 0 | -2 | 20 | . | -9 | -2 |
| Cc1ccc(-c2nnc(SCc3nc4ccccc4[nH]3)n2Cc2ccco2)cc1 | i | 2 | 1 | -2 | . | -17 | -20 | 5 |
| O=C(NCCSCc1ccco1)c1ccc(CN2CCOCC2)cc1 | i | 4 | 0 | 2 | -14 | . | -19 | -9 |
| [O-][n+]1c2ccccc2[n+]([O-])c2cc(O)ccc21 | i | 106* | 27 | 36 | 5 | 21 | 5 | 78* |
| COc1cc(S(=O)(=O)NCC(c2ccco2)N2CCCCC2)ccc1NC(C)=O (stereo not given) | . | . | 0 | 3 | -21 | 26 | -14 | . |
| Cc1cc(C2C(C#N)=C(N)OC3=C2C(=O)CCC3)c(C)s1 (stereo not given) | i | 3 | -2 | 0 | 13 | 22 | -27 | 3 |
| O=C(NC(Cc1ccccc1)C(=O)OCC(=O)N1CCc2ccccc21)c1ccco1 (stereo not given) | i | -5 | 1 | 6 | -3 | . | 17 | 1 |
| O=C(NCc1ccc(F)cc1)c1ccc(CS(=O)(=O)Cc2ccccc2F)o1 | i | 4 | 2 | -2 | -7 | . | 0 | -1 |
| NS(=O)(=O)c1ccc(CCNCc2ccccc2OCc2ccc(F)cc2)cc1 | i | -5 | -3 | -4 | . | 37 | -13 | -6 |
| O=C(CSc1n[nH]c(=O)[nH]c1=O)N/N=C/c1ccccc1O | i | 7 | 4 | 7 | 1 | . | . | 7 |

(more compounds)
SMILES	Rce1 inh	eIF4H FP inh	MT1-MMP act inh	MT1-MMP act inh RFP	CSC inhib	Env fusion inh	Yeast UUG start	PABP polyA inh
CC(=O)Nc1cc(NC(C)=O)cc(C(=O)NCC2(N3CCOCC3)CCCCC2)c1	.	.	5	-2	.	0	-19	.
C/C(=N/NC(=O)CNC(=O)c1cccnc1)c1cccc([N+](=O)[O-])c1	i	4	0	2	-12	-4	.	3
CCN1C(=O)[C@H]2[C@@H](c3ccc(-c4ccc(OC)cc4)cc3)N[C@@](C)(C(=O)OC)[C@H]2C1=O	i	.	-1	-2	28	-13	-12	.
COc1cc(/C=N/O)ccc1OCc1ccc(Cl)cc1	i	0	.	.	6	i	.	-4
COc1ccc(CCNC(=O)CCCn2c(=O)c3cccn3c3cccnc32)c(OC)c1OC	i	-1	-3	-1	-18	1	-21	2
COc1cccc(/C=N/n2c(-c3n[nH]c4c3CCC4)n[nH]c2=S)c1O	i	1	2	0	5	-17	.	-2
COC(=O)c1sc(NC(=S)NNC(=O)c2c(Br)c(C)nn2C)c(C(=O)OC)c1C	i	13	12	-5	-6	-17	-19	21
COc1ccc(Cl)cc1C(=O)NNC1CC(=O)N(Cc2ccc(Cl)cc2)C1=O (stereo not given)	i	0	-1	0	.	.	.	-7
Cc1ccc(CCNC(=O)CN2C(=O)COc3ccc(S(=O)(=O)N4CCCCC4)cc32)cc1	i	.	8	2	-10	7	4	.
O=S(=O)(Cc1ccc(Cl)cc1)NCC1CCCO1 (stereo not given)	i	0	-1	1	5	-5	-26	-6
CCC(C)NC(=O)CSc1nc2ccccc2c(=O)n1CCCN1CCCCC1 (stereo not given)	i	-6	-2	3	-9	3	-9	4
CN1CCOCCOCCN(C)C(=O)N2CCOCCOCCN(CCOCC2)C1=O	i	-10	5	6	-3	.	-9	-14
Cc1ccc(C)c(N2CCN(S(=O)(=O)c3ccc4c(c3)NC(=O)CS4)CC2)c1	i	5	-21	-42	19	-4	-16	15
Cc1ccc(C)c(NC(=S)NC(NC(=O)/C=C/c2ccccc2)C(Cl)(Cl)Cl)c1 (stereo not given)	i	-11	-10	-16	31	48	-10	-4
O=C(NN1C(=O)c2ccccc2NC1c1ccoc1)c1ccccc1 (stereo not given)	i	1	-1	3	-5	-9	-14	5
COCCn1c(N)c(N(Cc2ccccc2)C(=O)c2cc(=O)[nH]c3ccccc23)c(=O)[nH]c1=O	.	.	1	5	-3	.	-6	.
Cc1noc(C)c1CCC(=O)O	.	-4	1	0	-6	0	.	-8
Cc1ccnc(SCc2ccc(C(=O)O)cc2)n1	.	7	-5	1	-11	-3	-17	27
O=C(c1cc([N+](=O)[O-])ccc1Cl)N1CCN(c2ccc(F)cc2)CC1	.	0	2	3	-8	2	4	-1
O=C(CSc1nnc(Cc2cc(=O)[nH]c(=O)[nH]2)n1-c1ccc(F)cc1)NC1CCCC1	i	43	1	6	-3	-16	-13	44
CC(=O)NC1=NN(C(C)=O)C2(S1)C(=O)N(C(C)=O)c1ccc(C)cc12 (stereo not given)	i	4	3	3	18	5	1	-1
